Compound activity from PubChem.
PINK1 expr mod – A Quantitative High throughput Screen to Identify Chemical Modulators of PINK1 Expression. Potency, µM (top dose mostly 76.6 µM), inactives show at the top dose activation (PINK1 increase), most hits filed as activators. 410,000 tested, 0.2% active. PINK1 immunofluorescence, high-content cytometry, 24 h. AID 624263, 2012; active = well fitted activation curve with a large enough effect; inconclusive = small, poorly fitted or top-dose-only effect; inactive = flat fitted curve, though single readings scatter; cell line not stated here;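 further: potency means the concentration at half of the fitted maximal effect; % of control where 0% means no effect; nearly all actives have a fitted effect of over 65% in size; a mitochondrial uncoupler was the plate control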
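Stable cell line, 250 cells/well, 12 h attachment; compounds pinned at 5 concentrations, 24 h; CCCP control. Fixed with nuclear dye, primary antibodies 12 h at 10 degrees C, secondary plus cell stain; laser-scanning cytometer read.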
TRPV1 potentiator – HTS Assay for Compounds that Act as Potentiators of the Vanilloid Receptor 1 | Transient receptor potential cation channel subfamily V member 1 (Homo sapiens), Q8NER1 | 320,000 tested, 0.02% active | TRPV1-expressing cells, Fluo-8 calcium influx, capsaicin EC20 potentiation; host cell line not named in the record; control for the full effect not named in the record | potentiation, % at 8.33 µM | AID 540277, 2011; active means potentiation above 80%; inconclusive means 30% to 80%; inactive means below 30%; further: 0% is about no effect
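Cells expressing TRPV1 were dye-loaded with Fluo-8 and read kinetically: 10 s baseline, 3 min after compound (agonist portion), then 2 min after EC20 capsaicin (allosteric enhancer portion). Calcium-bound dye fluorescence at 480/520 nm.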
Sfp PPTase inh – qHTS Assay for Inhibitors of Bacillus subtilis Sfp phosphopantetheinyl transferase (PPTase) | Potency, µM, inactives show max response, negative = inhibition, hits mostly inhibitors | AID 1490, 2009 | Biochemical Sfp PPTase activity, qHTS | 310,000 tested, 3.5% active; active means well fitted inhibition curve with a large enough effect; inconclusive means small, poorly fitted or top-dose-only effect, or another doubt; inactive means no such curve, though single readings can be large or run the other way;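 further: the enzyme is Sfp with the accession as filed and its product quenches rhodamine fluorescence; potency means the concentration at half of the fitted maximal effect; 0% = enzyme reaction without inhibitor and -100% = no enzyme wells; top concentration of the series not given in the record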
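Step 1, compound plus 15 nM Sfp-PPTase, 15 min, room temperature. Step 2, add rhodamine-CoA (5 uM) and BHQ-2-YbbR (12.5 uM). Step 3, read 525/598 nm fluorescence at 0 and 30 min.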
TRPML1 inh – qHTS for Inhibitors of the Human Mucolipin Transient Receptor Potential 1 (TRPML1); Mucolipin-1 (Homo sapiens), Q9GZU1; TRPML1-inducible cells, Ca2+ dye fluorescence, FDSS; hits give low values; inhibition of EC80 agonist-evoked calcium signal; activity change, negative = inhibition, % (test concentration not listed); 390,000 tested, 0.02% active; in the data active means activity change below about -50%; inconclusive means about -30% to -50%; inactive means above about -30%;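 further: stimulus is agonist 54-4 at its EC80 concentration; on the % scale 0 is the no-effect control and ±100 the full control effect; compound concentration not given in the record; the text of the record puts the active cut at -80%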
Target sequence (Q9GZU1 whole entry, looked up): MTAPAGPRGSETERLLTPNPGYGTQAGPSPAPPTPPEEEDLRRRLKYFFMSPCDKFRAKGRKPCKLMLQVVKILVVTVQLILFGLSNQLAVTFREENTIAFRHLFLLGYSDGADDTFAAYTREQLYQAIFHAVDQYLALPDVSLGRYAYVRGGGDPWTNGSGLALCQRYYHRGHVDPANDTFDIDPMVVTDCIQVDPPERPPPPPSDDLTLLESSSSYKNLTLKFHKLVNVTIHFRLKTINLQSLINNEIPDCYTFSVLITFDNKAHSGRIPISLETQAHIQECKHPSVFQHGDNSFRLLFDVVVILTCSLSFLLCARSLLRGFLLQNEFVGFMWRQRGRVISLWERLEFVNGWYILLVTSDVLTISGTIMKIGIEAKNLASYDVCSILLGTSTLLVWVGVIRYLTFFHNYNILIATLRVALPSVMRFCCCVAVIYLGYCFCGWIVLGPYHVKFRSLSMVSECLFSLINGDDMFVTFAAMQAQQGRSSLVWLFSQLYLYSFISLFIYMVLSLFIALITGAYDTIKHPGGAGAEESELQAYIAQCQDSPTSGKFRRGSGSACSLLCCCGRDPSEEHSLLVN
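Tet-induced TRPML1-DL cells loaded with Ca8 no-wash calcium dye were read kinetically on FDSS. Compound addition was followed by EC80 agonist 54-4 (4 uM final); inhibition was read over 110 s.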
ClpP mod – qHTS Assay for Activators of ClpP. purified B. subtilis ClpP, FRET peptide cleavage, 20 min. ATP-dependent Clp protease proteolytic subunit (Bacillus subtilis (strain 168)), P80244. Potency, µM (series often up to 57.5 µM), for inactives: top-dose activity change, negative = active. 340,000 tested, 1.9% active; active = well fitted falling curve with a large enough effect; inconclusive = small, poorly fitted or top-dose-only effect; inactive = no such curve, though single readings can be large or run the other way; further: potency means the concentration at half of the fitted maximal effect; the source files actives as falling curves though it sought activators and does not explain the sign; nearly all actives have a fitted effect of over 65% in size; many hits overshoot -100%
Target sequence (P80244 whole entry, looked up): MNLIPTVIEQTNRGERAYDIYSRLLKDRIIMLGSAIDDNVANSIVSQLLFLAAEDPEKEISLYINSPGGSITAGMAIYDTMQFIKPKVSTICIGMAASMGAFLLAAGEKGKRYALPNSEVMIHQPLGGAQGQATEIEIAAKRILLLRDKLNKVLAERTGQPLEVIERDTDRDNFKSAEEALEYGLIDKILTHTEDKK
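Purified B. subtilis ClpP, 10 microg/mL final in Tris/HCl pH8 with KCl, BSA, glycerol and Tween-20, cleaved an Abz/nitrotyrosine-quenched decapeptide. Fluorescence (ex 320, em 430) was read at 0 and 20 min at room temperature. Delta was normalized to 5.8 microM ADEP and DMSO/no-enzyme controls.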
Menin-MLL FL inh – qHTS Assay for Inhibitors Targeting the Menin-MLL Interaction in MLL Related Leukemias: Competition With Fluorescein Labeled MLL-derived Peptide. FP activity change, % at 61.4 µM. 290,000 tested, under 10 active. Fluorescence polarization, fluorescein-MLL peptide displacement from menin; inconclusive = falling polarisation curve, or a change in total fluorescence; inactive = total fluorescence flat and polarisation flat or rising; no compound was filed as active; the % refers to the polarisation; negative = inhibition;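 further: % of control where 0% means no effect; inhibitors lower the polarisation; unlabelled MLL peptide was the positive control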
TRPML1 agonist – qHTS for Agonists of the Human Mucolipin Transient Receptor Potential 1 (TRPML1) | Mucolipin-1 (Homo sapiens), Q9GZU1 | TRPML1-expressing cells, Ca2+ dye fluorescence, FDSS; host cell line not named in the record; reference of the full effect not given here | activation, % (no concentration beside the values) | 410,000 tested, 0.12% active | AID 624414, 2012; in the data active = activation above about 50%; inconclusive = about 30% to 50%; inactive = below about 30%; further: 0% is about no effect; the text of the record puts the active cut at 80%
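Cells: TRPML1-DL, 1X Tet inducer, ~16 h at 37 degrees C/5% CO2. Dye: ABD Ca8 no-wash + quencher, 45-90 min RT. Read: 10 s baseline, compound add, 110 s agonist phase; 54-4 EC80 (4uM final), 110 s antagonist phase.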
* hit, by the source's call; & = joins results of further samples; [ ] = another dose, or the depositor's remark.

Screening CCOc1cccc(C(=O)NC2CCCCC2)c1 returned TRPV1 potentiator 9.1, Sfp PPTase inh 10.0%, TRPML1 inh 2.8, ClpP mod -0.4%, Menin-MLL FL inh 0.5 and TRPML1 agonist -0.5.
Screening COc1ccc(C2/C=C\CN(CC(C)C)C(Cc3ccccc3)C(=O)N2Cc2ccc(F)cc2)cc1 (centres undefined) returned Sfp PPTase inh 3.7%, TRPML1 inh 70.9, Menin-MLL FL inh 4.8 and TRPML1 agonist 1.4.
Cc1ccc(-c2cc(C(=O)N(Cc3ccc(C(C)(C)C)cc3)Cc3ccco3)no2)cc1 was read as PINK1 expr mod 6.5%, TRPML1 inh 44.4, ClpP mod -1.0% and TRPML1 agonist -0.1.
`CCCCN(CC)CCNC(=O)c1cc2cc3ccc(Cl)cc3nc2o1` gave PINK1 expr mod 6.5%, TRPV1 potentiator 10.4, Sfp PPTase inh 20.9%, TRPML1 inh -17.5, Menin-MLL FL inh 5.8 and TRPML1 agonist 0.3.
Screening NS(=O)(=O)c1ccc(CCNC(=O)CCC(=O)c2cccs2)cc1 returned PINK1 expr mod 1.3%, TRPV1 potentiator 13.7, TRPML1 inh -0.9, ClpP mod -0.8% and TRPML1 agonist -0.1.
Cc1ccc(OCC(=O)Nc2ccc(C)c(S(=O)(=O)N3CCCCC3)c2)c([N+](=O)[O-])n1 was read as PINK1 expr mod 0.7%, TRPV1 potentiator inconclusive, Sfp PPTase inh 0.1%, TRPML1 inh -0.8, ClpP mod 1.2%, Menin-MLL FL inh -0.8 and TRPML1 agonist -0.7.
Screening Cc1cccc(NC(=O)c2sc3nc4c(cc3c2N)CN(Cc2ccccc2)CC4)c1 returned PINK1 expr mod 1.9%, TRPML1 inh 11.1, ClpP mod -10.0% and TRPML1 agonist 1.6.
CN1CCN(CCC(=O)N/N=C/C=C2\N(C)c3ccccc3C2(C)C)CC1 was read as PINK1 expr mod 1.2%, TRPV1 potentiator 19.3, Sfp PPTase inh -6.4%, TRPML1 inh 19.3, Menin-MLL FL inh 17.9 and TRPML1 agonist 5.3.
`CCCNS(=O)(=O)c1cccc(C(=O)NNC(=O)c2cc(C)oc2C)c1` gave PINK1 expr mod 3.0%, TRPV1 potentiator inconclusive, TRPML1 inh -3.5, ClpP mod -3.2% and TRPML1 agonist 0.7.
`CCOC(=O)Cn1c(O)c(N=NC(=O)OC)c2ccccc21` gave PINK1 expr mod -2.0%, TRPV1 potentiator -18.2, Sfp PPTase inh 5.5%, TRPML1 inh 22.2, Menin-MLL FL inh 0.5 and TRPML1 agonist -1.3.
CCCN(CCC)C(=O)Cn1c(=O)n(Cc2ccc(C(=O)NCCc3ccc(OC)c(OC)c3)cc2)c(=O)c2ccccc21 was read as PINK1 expr mod -1.2%, TRPML1 inh -20.8, ClpP mod -4.6% and TRPML1 agonist 0.0.
CCOc1ccc(C(=O)Nc2cccc(OCc3cc(=O)n4cc(C)sc4n3)c2)cc1 was read as PINK1 expr mod 2.8%, TRPML1 inh 7.1, ClpP mod 0.1% and TRPML1 agonist -0.5.
For Cc1ccsc1C(=O)N(C)CC(=O)N(CC(C)C)c1c(N)n(CC(C)C)c(=O)[nH]c1=O the results were PINK1 expr mod -0.6%, TRPV1 potentiator 7.0, TRPML1 inh -6.5, ClpP mod 1.1% and TRPML1 agonist 0.0.
CCC(C(=O)Nc1cc(-c2nc3cccnc3s2)ccc1C)c1ccccc1 (centres undefined) was read as PINK1 expr mod 1.3%, TRPML1 inh -18.0, ClpP mod 35.5µM* and TRPML1 agonist 2.6.
Screening CN(C)C=Nc1nonc1-c1ccccc1 returned PINK1 expr mod 0.9%, TRPV1 potentiator 1.7, Sfp PPTase inh 10.4%, TRPML1 inh -2.5, ClpP mod -1.5%, Menin-MLL FL inh 4.3 and TRPML1 agonist -1.1.
`COc1ccc(C(=O)C2CCCN(C(=O)CCNC(C)=O)C2)cc1OC` (centres undefined) gave PINK1 expr mod -0.1%, TRPV1 potentiator inconclusive, Sfp PPTase inh 16.6%, TRPML1 inh 3.5, ClpP mod -12.3%, Menin-MLL FL inh 3.8 and TRPML1 agonist 0.5.
`Cc1ccc(S(=O)(=O)N2CCOCC2)cc1C(=O)NCc1cccnc1` gave TRPV1 potentiator -2.6, Sfp PPTase inh 16.6%, TRPML1 inh 26.6, ClpP mod -0.4%, Menin-MLL FL inh -1.9 and TRPML1 agonist 0.0.
O=C(COc1cccc(Cl)c1)N1CCC(c2nc3ccccc3s2)CC1 was read as PINK1 expr mod 1.7%, TRPML1 inh -3.9, ClpP mod 0.7% and TRPML1 agonist -1.0.
For CCCCC1=CC2=CC(=O)C(C)(OC(=O)CC)C(=O)C2=CN1CCc1ccc(Br)cc1 (centres undefined) the results were PINK1 expr mod 3.9%, TRPV1 potentiator 2.5, Sfp PPTase inh 10.4%&-9.9%, TRPML1 inh -10.1, ClpP mod -8.1%, Menin-MLL FL inh -1.9[11.7 µM] and TRPML1 agonist 0.7.
Cc1ccsc1S(=O)(=O)N1CCC(CO)(CC2CCCCO2)CC1 (centres undefined) was read as PINK1 expr mod 1.2%, TRPV1 potentiator -6.4, Sfp PPTase inh inconclusive, TRPML1 inh 1.3, ClpP mod 2.8%, Menin-MLL FL inh -0.7 and TRPML1 agonist -1.1.
NCCC(=O)N1c2ccccc2Sc2ccccc21 was read as PINK1 expr mod -1.0%, TRPV1 potentiator 22.1, Sfp PPTase inh 5.7%, TRPML1 inh -2.2, Menin-MLL FL inh -4.4 and TRPML1 agonist 0.8.
For CCCCn1nnnc1C1(C)CCC(=O)N1Cc1ccc(OC)c(OC)c1 (centres undefined) the results were PINK1 expr mod -0.2%, ClpP mod 0.6% and TRPML1 agonist -0.5.
`CCOC(=O)c1cc(NC(=O)CN2CCCC2)cc(C(=O)OCC)c1` gave PINK1 expr mod -1.6%, TRPV1 potentiator -5.6, Sfp PPTase inh 1.2%, TRPML1 inh 11.1, Menin-MLL FL inh -0.6 and TRPML1 agonist 1.0.
Screening COc1ccc(S(=O)(=O)N2CCC3(CC2)CC(=O)c2ccccc2O3)cc1OC returned PINK1 expr mod 18.8%, TRPV1 potentiator 20.9, TRPML1 inh -4.8, ClpP mod inconclusive and TRPML1 agonist 0.4.
For CCc1ccc(N(CC)C(=O)c2cc3c(=O)oc4ccc(C)cc4c3s2)cc1 the results were PINK1 expr mod 1.2%, TRPML1 inh -9.6, ClpP mod 0.3% and TRPML1 agonist -1.1.
Screening CC(C)NC(=O)c1cnn2c1NC(c1cccs1)CC2C(F)(F)F (centres undefined) returned PINK1 expr mod -4.3%, TRPV1 potentiator 4.1, Sfp PPTase inh 10.5%, TRPML1 inh -22.1, ClpP mod -5.1%, Menin-MLL FL inh 3.8 and TRPML1 agonist 0.5.
`CCOC(=O)Cc1csc(SCC(=O)NC2CCS(=O)(=O)C2)n1` (centres undefined) gave PINK1 expr mod -0.8%, TRPV1 potentiator 13.0, TRPML1 inh 6.6, ClpP mod 0.2% and TRPML1 agonist -0.4.
Cc1nnc(SCC(=O)O)o1 was read as PINK1 expr mod 0.5%, TRPV1 potentiator -1.0, Sfp PPTase inh 10.3%, TRPML1 inh 30.9, Menin-MLL FL inh -1.8 and TRPML1 agonist 0.0.
For CC(C)CC(=O)Nc1cccc(C(=O)Nc2ccccc2C(=O)O)c1 the results were PINK1 expr mod 5.1%[38.3 µM], TRPV1 potentiator 0.3, Sfp PPTase inh 26.1%, TRPML1 inh 7.2, ClpP mod 0.0%, Menin-MLL FL inh 7.6 and TRPML1 agonist -0.1.
Screening COc1ccc2[nH]c(=O)c(CN(CC3CCCO3)C(=S)Nc3ccccc3)cc2c1 (centres undefined) returned PINK1 expr mod 3.7%, TRPV1 potentiator 4.5, Sfp PPTase inh 16.8%, TRPML1 inh 25.7, ClpP mod -8.7%, Menin-MLL FL inh 2.2 and TRPML1 agonist 1.7.
For CCOC(=O)c1sc(N2N=C(C)C(N=Nc3cccc(C)c3)C2=O)nc1C (centres undefined) the results were PINK1 expr mod 14.6%, TRPV1 potentiator 16.5, Sfp PPTase inh -21.8%, ClpP mod -1.1% and Menin-MLL FL inh -1.0.
`Cc1ccc(C(C)NC(=O)CSc2ccc(S(=O)(=O)N3CCOCC3)cn2)cc1C` (centres undefined) gave PINK1 expr mod 0.6%, TRPV1 potentiator -2.7, TRPML1 inh -14.6, ClpP mod 25.1µM* and TRPML1 agonist 1.6.
`CCC(=O)Nc1cccc(C2=NOC3(C2)C[C@@H](C(N)=O)N(C(=O)c2ccccc2C(=O)c2ccccc2)C3)c1` (some centres undefined) gave PINK1 expr mod -0.8%, TRPV1 potentiator inconclusive, Sfp PPTase inh 4.3%, TRPML1 inh 7.2, ClpP mod -4.1%, Menin-MLL FL inh 0.0 and TRPML1 agonist -0.1.
Screening Cc1ccc(OCCCCN2CCc3ccccc3C2)c(C)c1 returned PINK1 expr mod 23.2%, TRPV1 potentiator 10.6, Sfp PPTase inh -20.7%, TRPML1 inh 27.6, Menin-MLL FL inh 1.3 and TRPML1 agonist 2.5.
Screening CCOC(=O)c1ccccc1NC(=O)CSc1ncc2c(n1)-c1ccccc1N(CC)S2(=O)=O returned PINK1 expr mod 1.6%, TRPML1 inh 26.5, ClpP mod 3.9% and TRPML1 agonist 1.0.
Screening COCCn1c(N)c(N(Cc2ccccc2)C(=O)CSCC(=O)Nc2ccc(C)cc2)c(=O)[nH]c1=O returned PINK1 expr mod -0.7%, TRPV1 potentiator 0.0, TRPML1 inh 31.5, ClpP mod 39.6% and TRPML1 agonist -0.6.
For CCC(=O)N/N=C(\C)CC(=O)Nc1cc(Cl)ccc1C the results were PINK1 expr mod 1.4%, TRPV1 potentiator 2.2, Sfp PPTase inh 25.1%, TRPML1 inh -2.6, ClpP mod -2.0%, Menin-MLL FL inh 4.5 and TRPML1 agonist 1.1.
